Screening results: PubChem, ICCB-Longwood Screening Facility, Harvard Medical School
Polio RdRp inh: inhibitors of poliovirus RNA polymerase binding and polymerization | P03300 | poliovirus polymerase elongation, fluorescence polarization; hits give low values | % elongation, % (compound at 16.7 µg/mL) | 0.66% of 150,000 active; in the data active means % elongation below about 90%; further: some results filed as inactive read as strong as hits
Target sequence (P03300 1749-2209 limits assumed): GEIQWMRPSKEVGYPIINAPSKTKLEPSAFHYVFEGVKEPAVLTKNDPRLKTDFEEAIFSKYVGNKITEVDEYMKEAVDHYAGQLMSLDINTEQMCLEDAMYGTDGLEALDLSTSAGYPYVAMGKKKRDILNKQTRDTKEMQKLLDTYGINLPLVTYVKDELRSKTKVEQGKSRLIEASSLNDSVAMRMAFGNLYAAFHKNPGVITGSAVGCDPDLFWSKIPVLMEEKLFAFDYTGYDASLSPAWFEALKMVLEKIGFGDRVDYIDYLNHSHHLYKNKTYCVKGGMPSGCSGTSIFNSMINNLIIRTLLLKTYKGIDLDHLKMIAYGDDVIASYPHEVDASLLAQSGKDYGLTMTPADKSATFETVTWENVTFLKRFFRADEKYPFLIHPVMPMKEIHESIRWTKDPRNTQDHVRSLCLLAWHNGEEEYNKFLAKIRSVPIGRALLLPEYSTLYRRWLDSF
Polio RdRp inh intensity: also measured in Polio RdRp inh; calls as there; % elongation; measured here: total intensity read-out; formula for this scale not given here;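 total fluorescence in place of polarization; lower means less elongation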
An asterisk follows results filed as active. The list is partial; the hit share may differ from the screen's.

item | Compound | Polio RdRp inh intensity | Polio RdRp inh
1 | CC(=O)c1c(C)oc2c(Cl)cc(NS(=O)(=O)c3ccc(Cl)cc3)cc12 | 117.0 | 110.0
2 | Cc1cc(C)cc(OCCn2c(C3CC(=O)N(c4ccccc4Cl)C3)nc3ccccc32)c1 (configuration not stated) | 114.0 | 113.0
3 | CCCNC(=O)C(C)n1nc(C)c2c(C)n(-c3ccccc3)nc2c1=O (configuration not stated) | 115.0 | 107.0
4 | O=C(NCc1cccnc1)C(=O)NCC(c1cccnc1)N1CCN(c2ccccc2)CC1 (configuration not stated) | 108.0 | 113.0
5 | CCCCN1CC(c2nc3ccccc3n2CCCCOc2cc(C)ccc2C)CC1=O (configuration not stated) | 97.0 | 98.0
6 | COc1cc(OC)c(NC(=O)c2nc(-c3ccncc3)no2)cc1Cl | 105.0 | 105.0
7 | CCC(Cc1ccccc1)NC(=O)Cn1ncc2c3ccccc3n(Cc3ccccc3)c2c1=O (configuration not stated) | 112.0 | 108.0
8 | CN(Cc1ccccc1)C(=O)c1ccc2c(c1)N(Cc1ccc(Cl)cc1)C(=O)c1ccccc1S2=O (configuration not stated) | 106.0 | 107.0
9 | CCOC(=O)C1CCN(C(=O)c2nn(-c3ccc(C)cc3)c(=O)n(C)c2=O)CC1 | 113.0 | 105.0
10 | CCc1cccc(-n2nnc(-c3nc(-c4cccs4)no3)c2N)c1 | 115.0 | 114.0
11 | Cc1ccc2cccc(NC(=O)C(C)(C)Oc3ccc(Br)cc3)c2n1 | 111.0 | 109.0
12 | CCCCc1nn2c(=O)cc(COC(=O)c3ccc(NC(=O)c4ccccc4C)cc3)nc2s1 | 114.0 | 111.0
13 | Cc1cccc(OCC(=O)NCCc2nc3ccccc3[nH]2)c1C | 109.0 | 106.0
14 | O=C(NCC1CCN(Cc2ccccc2F)CC1)Nc1ccc(F)c(Cl)c1 | 105.0 | 108.0
15 | Cc1ccc(C)c(NC(=O)c2cnc(N3CCCC3)nc2C)c1 | 108.0 | 106.0
16 | COc1ccc(CC(=O)Nc2nnc3n2CCS3)cc1OC | 102.0 | 96.0
17 | COc1ccc(CCNC(=O)CCCn2c(=O)c3ccccc3n(CC(=O)Nc3c(C)cc(C)cc3C)c2=O)cc1OC | 111.0 | 107.0
18 | CCCCCn1c(CNC(=O)c2ccc(F)cc2)nc2ccccc21 | 109.0 | 108.0
19 | CCCc1cc(=O)n2[nH]c(NC(=O)c3ccccc3Cl)nc2n1 | 95.0 | 106.0
20 | Cn1c(=O)c2c(SCC(=O)NCc3ccco3)nc(-c3cccc(F)c3)nc2n(C)c1=O | 103.0 | 99.0
21 | O=C(Cn1c(=O)c2cccn2c2ccc(F)cc21)N1CCN(c2ccc(F)cc2)CC1 | 105.0 | 103.0
22 | O=C(CN1C(=O)COc2ccc(S(=O)(=O)N3CCOCC3)cc21)N1CCN(c2ccc(Cl)cc2)CC1 | 111.0 | 108.0
23 | Cc1ccc(-n2cnc3cc(C(=O)NCCC4=CCCCC4)ccc32)c(C)c1 | 105.0 | 103.0
24 | CCC(Sc1nc2ccccc2c2nc(CCc3c(C)n[nH]c3C)nn12)C(=O)Nc1ccc(OC)cc1 (configuration not stated) | 112.0 | 106.0
25 | CC(C)c1ccc(NC(=O)CSc2nc(=O)n(Cc3cccnc3)c3c2CCC3)cc1 | 100.0 | 106.0

Among those listed so far, four contain an aryl methoxy group.
item | Compound | Polio RdRp inh intensity | Polio RdRp inh
6 | COc1cc(OC)c(NC(=O)c2nc(-c3ccncc3)no2)cc1Cl | 105.0 | 105.0
16 | COc1ccc(CC(=O)Nc2nnc3n2CCS3)cc1OC | 102.0 | 96.0
17 | COc1ccc(CCNC(=O)CCCn2c(=O)c3ccccc3n(CC(=O)Nc3c(C)cc(C)cc3C)c2=O)cc1OC | 111.0 | 107.0
24 | CCC(Sc1nc2ccccc2c2nc(CCc3c(C)n[nH]c3C)nn12)C(=O)Nc1ccc(OC)cc1 (configuration not stated) | 112.0 | 106.0

Next section
item | Compound | Polio RdRp inh intensity | Polio RdRp inh
26 | O=c1c2c3c(sc2nnn1CCCCOc1ccc(Cl)cc1)CCCC3 | 102.0 | 111.0
27 | COc1ccc(-n2nc3ccc(NC(=O)c4ccc(C#N)cc4F)cc3n2)cc1Cl | 113.0 | 108.0
28 | COc1ccc(Br)c(C(=O)Nc2cc3c(cc2N2CCCC2)n(C)c(=O)c(=O)n3C)c1 | 111.0 | 113.0
29 | CCc1cccc(NC(=O)Cn2c(=O)n(Cc3ccccc3)c(=O)c3c(C)c(C(=O)N(C)C)sc32)c1 | 99.0 | 99.0
30 | CC1(c2ccccc2)CC(C)(C)N(C(=O)c2ccccc2Cl)c2ccccc21 (configuration not stated) | 105.0 | 101.0
31 | Cc1ccccc1NC(=O)Cn1c(=O)n(CCCCCC(=O)NCc2ccc3c(c2)OCO3)c(=O)c2sccc21 | 106.0 | 106.0
32 | COc1ccccc1N1CCN(C(=O)CCS(=O)(=O)c2cc(Br)cc3c2N(C(C)=O)CC3)CC1 | 107.0 | 104.0
33 | CCN1CCN(c2oc(-c3ccc(COc4ccc(C)cc4)o3)nc2C#N)CC1 | 112.0 | 107.0
34 | COc1ccc(NC(=O)Cn2c(=O)oc3cc(S(=O)(=O)N4CCC(C)CC4)ccc32)c(OC)c1 | 103.0 | 107.0
35 | CCOC(=O)c1c(C)oc2nc(C)nc(NCC3CCN(Cc4ccc(F)cc4)CC3)c12 | 96.0 | 101.0
36 | Cc1nc2nc(C)c(CCC(=O)NCc3cccc(Cl)c3)c(C)n2n1 | 108.0 | 106.0
37 | O=C(NC1CC(=O)N(c2ccc(Cl)cc2)C1)c1ccc(S(=O)(=O)N2CCOCC2)cc1 (configuration not stated) | 104.0 | 99.0
38 | O=c1oc2c(CN3CCOCC3)c(O)ccc2cc1-c1ccc(Cl)cc1 | 106.0 | 112.0
39 | CCOC(=O)c1c(C)[nH]c(C)c1S(=O)(=O)N1CCC(C(=O)Nc2ccc(OCC)cc2)CC1 | 110.0 | 110.0
40 | COc1ccc(Cl)cc1NC(=O)c1cc(-c2ccc3c(c2)OCO3)on1 | 108.0 | 104.0
41 | CCc1ccccc1N1CC(c2nc3ccccc3n2CCCCOc2ccccc2OC)CC1=O (configuration not stated) | 93.0 | 95.0
42 | COc1ccc(C(=O)Nc2nnc(S(=O)(=O)N(C)c3ccc(C)cc3)s2)cc1 | 115.0 | 109.0
43 | CCN(CC)CCNC(=O)C1CCN(C(=O)c2cnn(-c3ccccc3)c2-n2cccc2)CC1 | 113.0 | 109.0
44 | COC(=O)c1ccccc1NC(=O)c1ccc(COc2cc(C)cc(C)c2)o1 | 110.0 | 104.0
45 | CSc1ccc(CCNC(=O)c2cc3n(n2)CCCN(Cc2ccc(C)cc2)C3=O)cc1 | 105.0 | 104.0
46 | Cc1ccccc1CNC(=O)Cn1c(=O)c2cccn2c2cccnc21 | 113.0 | 108.0
47 | Cc1ccc(NC(=O)c2oc3ccc(S(=O)(=O)N4CCCCC4)cc3c2C)cc1Cl | 115.0 | 113.0
48 | O=C1CN(C(=O)c2ccc(S(=O)(=O)N3CCCC3)cc2)C(c2ccccc2)c2cc(Cl)ccc2N1 (configuration not stated) | 106.0 | 107.0
49 | O=C(CS(=O)(=O)c1cccc2nsnc12)Nc1cc(F)ccc1F | 109.0 | 111.0
50 | COc1ccc(/C=C/C(=O)Nc2ccc3nc(N4CCC(C)CC4)cc(C)c3c2)cc1OC | 113.0 | 98.0

Next entries follow:
item | Compound | Polio RdRp inh intensity | Polio RdRp inh
51 | Cc1cccc(Nc2nnc(-c3ccc(C)c(S(=O)(=O)N4CCCCC4)c3)c3ccccc23)c1 | 103.0 | 102.0
52 | CCN(CC)CCNC(=O)c1ccc2c(c1)NC(=O)C(CS(=O)(=O)Cc1cccc(Br)c1)N2 (configuration not stated) | 97.0 | 105.0
53 | Cc1ccc(-c2nc3c4ccccc4n(CC(=O)N4CCN(c5ccc(F)cc5)CC4)c(=O)n3n2)cc1 | 106.0 | 102.0
54 | CCN1CCN(c2cc(C)c3cc(NC(=O)c4cc(OC)c(OC)c(OC)c4)ccc3n2)CC1 | 92.0 | 102.0
55 | O=C(CCc1ccccc1)N(Cc1cccnc1)c1nc2c(F)cccc2s1 | 98.0 | 102.0
56 | CN(C)c1ccc(C(=O)NCc2ccc3c(c2)CCN3C(=O)c2ccccc2)cc1 | 100.0 | 107.0
57 | COc1ccc2c(c1)c1c(c(=O)n(Cc3ccccc3)c(=O)n1CC(=O)Nc1cc(C)cc(C)c1)n2C | 108.0 | 109.0
58 | COc1cccc(CNC(=O)c2ccc3c(c2)nc2n3CCC(C)C2)c1 (configuration not stated) | 111.0 | 103.0
59 | Cc1ccc(CNC(=O)CSCc2ccc(F)cc2)cc1 | 112.0 | 113.0
60 | CCOc1ccccc1CNC(=O)c1cc2oc3ccccc3c2n1CC | 109.0 | 106.0
61 | COc1cc(/C=C(\C#N)c2nc3ccccc3[nH]2)ccc1OCc1ccc(F)cc1 | 116.0 | 107.0
62 | COc1ccc(NC(=O)CSc2nc3ccccc3n2CC(=O)Nc2cccc(C)c2C)cc1 | 106.0 | 109.0
63 | COc1ccc(NC(=O)CN(C)S(=O)(=O)c2ccc3nc(C)sc3c2)cc1 | 109.0 | 105.0
64 | CN(C)S(=O)(=O)c1ccc(C(=O)NCCS(=O)(=O)N2CCN(c3ccccc3)CC2)cc1 | 110.0 | 104.0
65 | CCOC(=O)c1ccc(NC(=O)CCc2c(C)nc3c(c(C)nn3-c3ccccc3)c2C)cc1 | 109.0 | 107.0
66 | Cc1ccc2[nH]c(CSc3nnc(NC(=O)COc4ccccc4Cl)s3)cc(=O)c2c1 | 115.0 | 103.0
67 | CCCC(=O)OC1=C(C(C)=O)N(Cc2ccccc2)S(=O)(=O)c2ccccc21 | 105.0 | 104.0
68 | CCc1ccc(CNC(=O)c2ccc(CSc3nc4ccncc4n3Cc3ccc(OC)cc3)cc2)cc1 | 111.0 | 104.0
69 | CCOC(=O)c1ccc2ncc(C(=O)OCC)c(NCCc3ccc(OC)c(OC)c3)c2c1 | 107.0 | 106.0
70 | COc1ccc(CCNC(=O)Cn2c(=O)nc(-c3ccccc3)c3cc(Cl)ccc32)cc1OC | 112.0 | 109.0
71 | O=C(c1cccc(Cl)c1)N1CCN(CCc2ccncc2)CC1 | 37.0* | 21.0*
72 | Cc1cc(O)c(C(c2ccccc2)N2CCC(C)CC2)c(=O)n1Cc1ccco1 (configuration not stated) | 105.0 | 101.0
73 | COc1ccc(Br)cc1CNC(=O)c1cc2n(n1)CCCN(Cc1ccc(C)cc1)C2=O | 106.0 | 107.0
74 | COc1cc2c(C(=O)Nc3cc(OC)c(OC)c(OC)c3)cn(C)c(=O)c2cc1OC | 104.0 | 102.0
75 | CCN1CCN(C(c2cccc(Cl)c2)c2c(O)cc(C)n(CCOC)c2=O)CC1 (configuration not stated) | 114.0 | 105.0

Given field by field: 4 of the compounds above
(57) COc1ccc2c(c1)c1c(c(=O)n(Cc3ccccc3)c(=O)n1CC(=O)Nc1cc(C)cc(C)c1)n2C
  Polio RdRp inh intensity: 108.0	Polio RdRp inh: 109.0
(58) COc1cccc(CNC(=O)c2ccc3c(c2)nc2n3CCC(C)C2)c1 (configuration not stated)
  Polio RdRp inh intensity: 111.0	Polio RdRp inh: 103.0
(59) Cc1ccc(CNC(=O)CSCc2ccc(F)cc2)cc1
  Polio RdRp inh intensity: 112.0	Polio RdRp inh: 113.0
(60) CCOc1ccccc1CNC(=O)c1cc2oc3ccccc3c2n1CC
  Polio RdRp inh intensity: 109.0	Polio RdRp inh: 106.0

(continued)
item | Compound | Polio RdRp inh intensity | Polio RdRp inh
76 | CCCCN(CC)C(=O)C1CCCN(c2ncnc3onc(C)c23)C1 (configuration not stated) | 109.0 | 115.0
77 | Cc1ccc(S(=O)(=O)NCCc2nnc3ccc(SCc4ccccc4F)nn23)cc1 | 106.0 | 107.0
78 | CCc1ccc2oc(C(=O)Nc3nc(-c4ccc(F)cc4)ns3)c(C)c2c1 | 105.0 | 109.0
79 | Cc1ccc(-c2cnc(NCc3ccc(C(C)C)cc3)n2C)cc1 | 99.0 | 97.0
80 | Cc1ccc(-c2cc(C(F)(F)F)n3nc(-c4ccc(Cl)cc4)cc3n2)cc1 | 108.0 | 106.0
81 | CCc1nc2nc(C)c(NS(=O)(=O)c3ccc(F)c(C)c3)c(=O)n2[nH]1 | 111.0 | 101.0
82 | Cc1ccc(-n2nnc(-c3nc(-c4cccs4)no3)c2N)c(C)c1 | 98.0 | 117.0
83 | CCOC(=O)N1CCC(NC(=O)c2ccc3c(c2)N(Cc2ccc(F)cc2)C(=O)c2ccccc2S3(=O)=O)CC1 | 102.0 | 100.0
84 | O=C(COc1ccc(Cl)cc1)NCCc1csc(-c2ccc(C(F)(F)F)cc2)n1 | 111.0 | 110.0
85 | COC(=O)c1sc(N2C(=O)c3oc4ccccc4c(=O)c3C2c2ccc(O)cc2)nc1C (configuration not stated) | 99.0 | 103.0
86 | CCOc1ccc(CNC(=O)c2ccc3c(Cl)c4c(nc3c2)CCCC4)cc1 | 108.0 | 106.0
87 | COc1cccc(NC(=O)CSc2nc3c([nH]c4ccccc43)c(=O)n2-c2cc(C)cc(C)c2)c1 | 114.0 | 116.0
88 | CCOC(=O)c1ccc(N2C(=O)c3n[nH]c(-c4cccs4)c3C2c2ccc(O)c(OC)c2)cc1 (configuration not stated) | 106.0 | 107.0
89 | CCc1ccc(-c2nn(CC(=O)NCc3ccccc3)c3c2cnc2ccc(F)cc23)cc1 | 113.0 | 110.0
90 | O=C(C1COc2ccccc2O1)N(Cc1cccnc1)c1nc2c(F)cccc2s1 (configuration not stated) | 107.0 | 105.0
91 | Cc1ccc2c(c1)N(C(=O)N1CCC(C(=O)NCCc3ccc(Cl)cc3)CC1)CC(C)O2 (configuration not stated) | 113.0 | 111.0
92 | CCN(CC)S(=O)(=O)c1ccc2c(c1)N(CC(=O)N1CCN(c3ccccc3F)CC1)C(=O)CO2 | 104.0 | 102.0
93 | COc1cccc(Cn2c(=O)n(-c3ccc(Br)cc3F)c(=O)c3sc4ccccc4c32)c1 | 112.0 | 108.0
94 | COc1ccc(CNC(=O)CCc2c(C)c3cc4c(C)c(C)oc4cc3oc2=O)cc1OC | 107.0 | 106.0
